# Source: PubChem
# D2 PAM: human D2 receptor positive allosteric modulation; potentiation, % (test concentration not listed); DiscoveRx D2 beta-arrestin cells, luminescence, 90 min; 100% = 57 uM dopamine signal; P14416; actives 0.23% (n = 360,000); active = potentiation of 50% or more; inconclusive = 30% to 50%; inactive = 30% or less;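 also: compound concentration not given in the record; tested on top of an EC20 dose of dopamine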
#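 PathHunter beta-arrestin assay in DiscoveRx D2 cells. Compounds were added with an EC20 of dopamine (50 nM final) for 90 min at 37 deg C. Luminescence was read 1 h after detection reagent, with 57 uM dopamine as the EC100 control.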
# gsp antagonist: antagonists of gsp mutant (McCune-Albright syndrome); actives 0.4% (n = 340,000); gsp-mutant cells, cAMP HTRF, 30 min; control for the full effect not named in the record; Potency, µM (top dose mostly 76.9 µM), without a hit: top-dose activity change, negative = inhibition, most hits filed as inhibitors; AID 624288; active = falling curve of any shape with a large fitted effect; inconclusive = falling curve, mostly with a smaller effect; inactive = flat or rising curve; cell line not stated here;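 also: intracellular cAMP measured with PDE inhibitor Ro 20-1724 present during compound exposure; potency is read from the fitted curve at half-maximal effect; % is scaled to controls: 0 for no effect and ±100 for the full control effect; nearly all actives have a fitted effect of over 65% in size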
#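 Measurement of cellular cAMP by homogeneous time-resolved fluorescence following a 30 min compound exposure at 37C. The PDE inhibitor […] was present throughout; the assay buffer was DPBS with 0.05% BSA and 0.005% Tween 20.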
# gsp agonist: agonists of gsp mutant (McCune-Albright syndrome). gsp mutant cells, cAMP HTRF, 30 min; control for the full effect not named in the record. Potency, µM (top dose mostly 76.9 µM), for inactives: at the highest dose activation (cAMP increase), actives largely listed as activators. actives 0.13% (n = 340,000). AID 624287; active = well fitted activation curve with a large enough effect; inconclusive = small, poorly fitted or top-dose-only effect, or another doubt; inactive = no such curve, though single readings can be large or run the other way; cell line not stated here;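 also: phosphodiesterase inhibitor Ro 20-1724 added with compounds to block cAMP breakdown; potency is read from the fitted curve at half-maximal effect; nearly all actives have a fitted effect of over 60% in size; about a fifth of the inactives were tested at one dose only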
#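 Cells stably selected in G418 were plated at 2000/well, grown 16-24 hr, then given compounds in DMSO with the PDE inhibitor […] (300 uM solution added) for 30 min at 37C; cAMP was read by HTRF.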
# D2 agonist: agonists of human D2 dopamine receptor (beta-arrestin). activation, % (test concentration not listed). DiscoveRx PathHunter D2 beta-arrestin, luminescence, 90 min; 100% = 57 uM dopamine signal. P14416. AID 624465. actives 0.084% (n = 360,000); in the data active = activation above about 40%; inconclusive = about 15% to 40%; inactive = below about 15%; also: compound concentration not given in the record; the text of the record calls up to 30% inactive
#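 DiscoveRx PathHunter D2 beta-arrestin cells (2,100/well) attached overnight, then compound-stimulated 90 min at 37 C in HBSS/10 mM HEPES/0.1% Tween-20 buffer; beta-galactosidase complementation read by luminescence after 1 h at ambient temperature. Dopamine 57 uM final (EC100) as control.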
# CtBP-E1A blk: blocks the CtBP interaction with E1A; actives 0.49% (n = 340,000); AlphaScreen GST-E1A/His-CtBP binding, 1536-well; active compounds read low; control for the full effect not named in the record; activity change, % (no concentration beside the values); in the data active means activity change below about -65%; inconclusive means about -30% to -65%; inactive means above about -30%; also: % is scaled to controls: 0 for no effect and ±100 for the full control effect
#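 Steps: dispense buffer (Tris pH 8.0, NaCl 300 mM, TCEP 1 mM, BSA, Tween 20); add 5X protein mix (GST-E1A, His-CtBP, 125 nM each); pin 23 nL compound; 2 h at 37 °C, dark; add 5X beads (50 ug/mL); 1 h; read.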
# Six1-Eya2 inh: inhibitors of human Six1/Eya2 interaction; Q15475+O00167; AlphaScreen GST-Six1/His-Eya2 binding, biochemical; active compounds read low; control for the full effect not named in the record; activity change, % (no concentration beside the values); actives 0.56% (n = 360,000); in the data active = activity change below about -65%; inconclusive = about -30% to -65%; inactive = above about -30%; also: % is scaled to controls: 0 for no effect and ±100 for the full control effect
# Target sequence (O00167 whole entry, looked up): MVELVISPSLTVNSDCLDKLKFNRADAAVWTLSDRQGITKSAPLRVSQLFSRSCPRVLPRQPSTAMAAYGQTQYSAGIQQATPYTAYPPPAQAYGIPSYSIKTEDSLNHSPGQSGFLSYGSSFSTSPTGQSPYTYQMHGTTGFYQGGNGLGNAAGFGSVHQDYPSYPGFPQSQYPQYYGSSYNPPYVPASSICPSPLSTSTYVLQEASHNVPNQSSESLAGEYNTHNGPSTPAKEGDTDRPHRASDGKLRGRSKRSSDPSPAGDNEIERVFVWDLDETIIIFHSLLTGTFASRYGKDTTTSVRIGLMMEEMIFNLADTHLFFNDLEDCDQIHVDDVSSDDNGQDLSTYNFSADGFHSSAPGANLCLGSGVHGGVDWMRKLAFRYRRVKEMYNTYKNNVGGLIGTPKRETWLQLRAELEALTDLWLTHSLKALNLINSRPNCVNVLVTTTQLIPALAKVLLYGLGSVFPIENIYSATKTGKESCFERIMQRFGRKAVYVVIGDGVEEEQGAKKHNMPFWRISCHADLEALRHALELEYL
# Target sequence (Q15475 whole entry, looked up): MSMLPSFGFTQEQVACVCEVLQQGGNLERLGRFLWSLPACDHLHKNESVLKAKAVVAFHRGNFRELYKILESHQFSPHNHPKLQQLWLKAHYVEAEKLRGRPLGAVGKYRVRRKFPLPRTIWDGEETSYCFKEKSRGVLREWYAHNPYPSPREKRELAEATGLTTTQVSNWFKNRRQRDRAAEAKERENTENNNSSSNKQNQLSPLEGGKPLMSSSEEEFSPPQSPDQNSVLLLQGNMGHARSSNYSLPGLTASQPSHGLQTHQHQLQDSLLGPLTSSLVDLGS
#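 AlphaScreen luminescence read after one hour at 37 °C in darkness. Pin-transferred compounds met GST-Six1 and His-Eya2 protein (5X stock 250 nM/500 nM) plus glutathione donor and Ni-chelate acceptor beads (5X, 50 ug/mL).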
# Active calls of the source: *; ? = inconclusive; . = not tested or not shown; [ ] = remark or other dose.
D2 PAM,gsp antagonist,gsp agonist,D2 agonist,CtBP-E1A blk,Six1-Eya2 inh,canonical_smiles
0,16%,7%[15.4 µM],1.7,8,7,CCCCn1c(N)c(N(CC)C(=O)c2cc(OC)cc(OC)c2)c(=O)[nH]c1=O
-12,5%,-16%,-0.4,5,2,COc1ccc(OC)c(S(=O)(=O)Nc2ccccc2F)c1
-1,45µM*,?,-4.2,3,0,COc1ccc(NC(=O)COC(=O)Cc2c(F)cccc2Cl)cc1
-13,4%,-21%,-6.2,8,0,Cc1ccc(S(=O)(=O)N(C)CC(=O)NCC(c2ccc(F)cc2)N2CCOCC2)cc1 (centres undefined)
-8,8%,3%,11,-9,-26,C=CCN1C(=O)C(Cc2ccc(F)cc2)S/C1=N/N=C/c1cccs1 (centres undefined)
0,.,.,-1.5,2,4,CCN(CCN(C)C)C(=O)c1ccc2nc(C)c(N(C)C(=O)CCc3ccccc3)n2c1
2,15%,?,0.2,4,3,Cc1c(Cl)cccc1NC(=O)Nc1c(C)n(C)n(-c2ccccc2)c1=O
-4,.,.,2.3,3,1,O=C(NC1CCCCC1)C(CCc1ccccc1)N1CCOCC1 (centres undefined)
-2,11%,-6%[15.4 µM],-3.5,-12,-16,CC(=O)NCCC(=O)Nc1nc2ccc(Oc3ccccc3)cc2s1
-7,5%,42%[15.4 µM],-6.0,5,12,Cc1cc(C)n(-c2ccc(Oc3ccccc3)c(S(=O)(=O)O)c2)n1
-21,-5%,5%,-2.2,0,-15,CN(C)S(=O)(=O)c1ccc(Cl)c(NC(=O)COC(=O)/C=C/c2ccc(S(=O)(=O)N3CCOCC3)cc2)c1
-19,-18%,-19%,-2.8,.,-82*,CCn1ccnc1CNCc1cn(-c2cc(C)ccc2C)nc1-c1ccccc1
7,-4%,17%,-1.6,-20,-3,Cc1cccc(Cn2nc(C)cc2NC(=O)CCCn2ccc([N+](=O)[O-])n2)c1
-5,4%,-1%[15.4 µM],-5.4,-2,0,CCCCNC(=O)c1ccc2c(c1)C(=O)N(Cc1ccncc1)C2=O
-18,-2%,1%[15.4 µM],-3.3,-6,-5,O=C(CN1CCN(Cc2ccccc2Cl)CC1)N/N=C/c1cccs1
?,2%,11%,1.9,1,2,Cc1c(C(=O)NCC2COc3ccccc3O2)oc2ccc(S(=O)(=O)N3CCOCC3)cc12 (centres undefined)
-7,8%,-8%,-7.9,4,0,COC(=O)C1CCN(C(=O)CSc2nnc(-c3ccccc3)o2)CC1
-5,.,4%,3.0,-2,12,C[C@@H]1CCCCO[C@@H](CN(C)C(=O)CCCN(C)C)[C@@H](C)CN([C@H](C)CO)C(=O)c2cc(NC(=O)CCC(F)(F)F)ccc2O1
?,4%,20%,2.8,.,4,Cc1ccc(-n2ncc3c(=O)n(CC(N)=O)cnc32)cc1
-20,?,.,-6.7,?,?,Fc1ccc(-[n+]2nc(Nc3ccccc3)sc2-c2c(Cl)cccc2Cl)cc1
16,-19%,-12%,-2.4,-3,-2,Cc1ccc2cc(C#N)c(SCC(=O)NCc3ccco3)nc2c1
-9,.,17%,-0.7,0,1,O=C1Nc2ccccc2SC1=Cc1ccccc1
-4,1%,9%,-3.1,1,4,C/C(=N/NC(=O)CSc1nc2ccccc2n1C)c1ccc(O)cc1
-19,-1%,10%,0.5,13,5,CCN(CC(=O)Nc1ccccc1OC)C(=O)Cn1cnc2ccccc2c1=O
-4,7%,.,-1.0,4,3,CN(C(=O)c1cccc(NC(=O)Cc2cccc(NC(=O)C3CCCN(C(=O)C4CC4)C3)c2)c1)C1CC1 (centres undefined)
-4,-5%,-10%[15.4 µM],-0.6,-25,-2,COc1ccc(CCNC(=O)COC(=O)/C=C/c2cccs2)cc1OC
-9,17%,-45%[inhibitor],0.5,1,3,CCC(C)[C@H](NC(=O)NC(C)C)C(=O)O (some centres undefined)
-3,-1%,-2%[15.4 µM],0.9,9,-1,CCN(CC)CCOC(=O)c1ccc([N+](=O)[O-])cc1
-7,-2%,-1%[15.4 µM],-4.0,5,3,COC(=O)c1ccc(S(=O)(=O)NCc2ccc(S(N)(=O)=O)cc2)n1C
-25,-5%,-13%,13,-2,-2,COC(=O)Nc1ncc(CN2CCC(c3ccccc3)CC2)s1
-1,4%,34%,-1.2,-20,6,O=C(CSc1nnc(-c2ccccc2F)o1)N1CCNC1=O
-1,9%,4%[15.4 µM],-3.1,6,-2,COC(=O)CC1=NN(c2nc(C)cc(C)n2)C(=O)C1
-25,2%,4%,2.3,5,1,COc1ccc(OC)c(S(=O)(=O)N(C)CC(=O)Nc2ccc3c(c2)OCCO3)c1
-4,-4%,?,-0.4,-1,-2,CC(C)C(=O)Nc1ccc(Cl)cc1-c1nc2ccccc2[nH]c1=O
-11,0%,5%,-2.3,-18,0,Cc1c(C(=O)Nc2c(C)n(C)n(-c3ccccc3)c2=O)oc2ccc(Cl)cc12
3,5%,1%[15.4 µM],-3.2,-4,8,Cc1cc(NC(=O)C(=O)c2cn(C)c3ccccc23)no1
-11,-13%,-27%,-6.1,-2,2,Cc1ccc(NC(=O)COC(=O)C2=NN(c3ccccc3)C(=O)CC2)c(Br)c1
-9,3%,-1%,0.0,1,3,COc1ccc(C(CNC(=O)c2cccc3cccnc23)N(C)C)cc1 (centres undefined)
2,8%,-2%,-1.8,-14,-2,Cc1ccc(-n2nnnc2SCC(=O)NCC2CCCO2)cc1C (centres undefined)
-20,0%,-4%,-6.2,3,-1,CCOc1ccccc1-n1nnnc1SCC(=O)NC(=O)Cc1ccccc1
-31,8%,-22%,0.7,-6,-15,Cc1ccc(-c2cccc(NC(=O)C3C(C(=O)O)[C@@H]4C=C[C@H]3C4)c2)o1 (some centres undefined)
-5,-9%,10%,-22,.,-8,CC1CN(Cc2ccccc2)c2nc3c(c(=O)n(CC(N)=O)c(=O)n3C)n2C1 (centres undefined)
1,0%,-4%[15.4 µM],-1.8,11,5,CCOc1ccc(C(=O)N2CCc3ccccc32)cc1OCC
-2,9%,-3%,2.2,-11,0,O=c1cc(CSc2ccccc2)nc(-c2ccncc2)[nH]1
4,7%,.,3.4,-1,1,O=c1ccn([C@@H]2O[C@H](CNCC3=Cc4cc(O)ccc4OC3)[C@@H](O)[C@H]2O)c(=O)[nH]1
-68,3%,8%[15.4 µM],1.0,4,-7,O=C(NCCc1ccc(F)cc1)c1ccc(NS(=O)(=O)c2ccc3[nH]c(=O)[nH]c3c2)cc1
0,16%,8%,-1.1,-1,0,Clc1ccc2[nH]cc(-c3nnnn3-c3ccccc3)c2c1
-15,-3%,-1%,0.5,10,4,CC(C)(C)c1ccc(C(=O)N2CCN(CCNC(=O)C(=O)NCc3ccccc3)CC2)cc1
-2,7%,-8%,-0.6,3,-9,O=C(N1CCOCC1)N1CCC(NC(=O)C23CC4CC(CC(C4)C2)C3)CC1
-12,-26%,-5%,1.6,-5,-1,O=C(CN1CCCCC1)Nc1nc(-c2ccc(Cl)cc2)cs1

# (continued)
D2 PAM,gsp antagonist,gsp agonist,D2 agonist,CtBP-E1A blk,Six1-Eya2 inh,canonical_smiles
-7,7%,-39%[inhibitor],-1.1,-19,-21,Cc1nc2ccc(S(=O)(=O)NC(C(=O)NCc3ccc4c(c3)OCO4)C(C)C)cc2s1 (centres undefined)
-2,-32%,11%[15.4 µM],1.0,4,-1,CCn1c(COc2cccc(C)c2)nnc1SCC(=O)NC1CCCC1
-7,13%,.,-2.4,6,0,C[C@H]1CC[C@]2(O[C@@H](CCO)C[C@H](O)[C@H]2O)O1
24,10%,-4%,5.5,-1,-7,O=C(c1ccccc1)N1N=C(c2ccccc2)CC1c1ccccc1[N+](=O)[O-] (centres undefined)
1,2%,-77%[inhibitor],3.0,4,0,COc1ccc(N2CC(C(=O)OC(C)C(=O)c3ccccc3)CC2=O)cc1 (centres undefined)
-4,10%,12%[15.4 µM],-2.5,4,-13,CC(C)OCCCNC(=O)[C@H]1N2C(=O)c3ccccc3C2SC1(C)C (some centres undefined)
0,5%,3%,-2.4,14,0,O=C(CC1SC(=O)N(Cc2ccccc2)C1=O)Nc1nccs1 (centres undefined)
-34,-12%,-3%[15.4 µM],-9.9,6,-3,O=C(NNC(=S)Nc1ccccc1Cl)c1ccccc1Br
-2,0%,-9%[15.4 µM],-1.0,2,-7,COc1ccc(/C(C)=N/NC(=O)CNC(=O)c2cccnc2)cc1
-2,-3%,?,-6.6,-3,4,Cc1cc(C)c2c(CC(=O)N(CCC#N)Cc3cccnc3)coc2c1
-8,.,29%,-1.8,-25,8,O=C(COC(=O)c1cccc(S(=O)(=O)N2CCCCC2)c1)NCc1cccc(Cl)c1
-11,5%,?,-6.1,.,-6,COCCSc1ccccc1C(=O)N1CCN(c2ccccc2)CC1
-27,-16%,2%,0.6,0,-3,COc1cc(C(=O)NCC(c2ccc(F)cc2)N2CCOCC2)ccc1OCc1ccccc1Cl (centres undefined)
9,-18%,15%,-0.3,1,1,CCC(C)c1ccccc1NC(=O)COC(=O)c1ccc(C)c(NC(=O)c2ccco2)c1 (centres undefined)
-5,7%,-22%[15.4 µM],2.6,11,-1,C/C(=N\O)c1ccc2c(c1)CC(C)O2 (centres undefined)
1,5%,-35%[inhibitor],11,-2,6,CC(=O)NNc1cc(C)nc(NS(=O)(=O)c2ccc(C)cc2)n1
-1,?,-13%,6.6,3,-4,CCOc1ccc2nc(N3C(=O)C(O)=C(C(=O)c4ccco4)C3c3ccco3)sc2c1 (centres undefined)
5,-13%,-1%,-1.2,3,-10,O=[N+]([O-])c1cccc(N=NN(CCO)c2cccc([N+](=O)[O-])c2)c1
-6,-2%,9%[15.4 µM],0.8,6,-22,COC(=O)c1sccc1NC(=S)Nc1cccc(F)c1
-26,4%,-16%,0.4,6,9,CC1=NC(C)Cc2ccccc21 (centres undefined)

# Structural class, the compounds so far containing a thiophene ring, fused or not (4)
D2 PAM,gsp antagonist,gsp agonist,D2 agonist,CtBP-E1A blk,Six1-Eya2 inh,canonical_smiles
-8,8%,3%,11,-9,-26,C=CCN1C(=O)C(Cc2ccc(F)cc2)S/C1=N/N=C/c1cccs1 (centres undefined)
-18,-2%,1%[15.4 µM],-3.3,-6,-5,O=C(CN1CCN(Cc2ccccc2Cl)CC1)N/N=C/c1cccs1
-4,-5%,-10%[15.4 µM],-0.6,-25,-2,COc1ccc(CCNC(=O)COC(=O)/C=C/c2cccs2)cc1OC
-6,-2%,9%[15.4 µM],0.8,6,-22,COC(=O)c1sccc1NC(=S)Nc1cccc(F)c1

# Going on with the list:
D2 PAM,gsp antagonist,gsp agonist,D2 agonist,CtBP-E1A blk,Six1-Eya2 inh,canonical_smiles
-5,6%,-8%[15.4 µM],-1.1,-2,-7,O=C1CCC(=O)N1c1ccc(NCCc2cccc(F)c2)c([N+](=O)[O-])c1
-17,9%,23%,-1.2,-7,-5,COc1ccc(CNC(=S)NC2CCCCC2)cc1
-5,1%,-35%,-0.3,6,2,COc1ccc(-c2nnc(SCC#CCO)o2)cc1OC
-11,3%,.,-4.3,0,-15,C=C(C)C(=O)Nc1cccc(C2=NOC3(C2)C[C@@H](C(N)=O)N(C(=O)/C=C/CC)C3)c1 (some centres undefined)
